Beta apoptosis – inhibitors of cytokine-induced beta cell apoptosis, primary screen, luminescence; protection from apoptosis, % (no concentration beside the values); hit rate 0.8% among 300,000; AID 435005, 2010; INS-1E cytokine-induced death, ATP luminescence, 48 h; percent of positive-control rescue, neutral wells zero;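 active = all replicates at 75% or more, or half of them and the mean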;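 also: 0% = cytokine-treated negative control wells and 100% = positive control rescue; higher means more ATP so stronger rescue from cytokine killing; wells of about 40 µL received 100 nL stock; the first replicate is given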
ALR inh – inhibitors of human ALR sulfhydryl oxidase, primary screen, biochemical, H2O2 detection, HRP-luminol luminescence, single point; FAD-linked sulfhydryl oxidase ALR (Homo sapiens), P55789; hit rate 3.8% among 290,000; inhibition, % (test concentration not listed); purified ALR, DTT oxidation;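 active = mean and each replicate at 75% or more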;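 also: stock transfer was 7.5 nL into about 7.5 µL; 0% = neutral wells and 100% = wells with inactivated enzyme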
Target sequence (P55789 whole entry, looked up): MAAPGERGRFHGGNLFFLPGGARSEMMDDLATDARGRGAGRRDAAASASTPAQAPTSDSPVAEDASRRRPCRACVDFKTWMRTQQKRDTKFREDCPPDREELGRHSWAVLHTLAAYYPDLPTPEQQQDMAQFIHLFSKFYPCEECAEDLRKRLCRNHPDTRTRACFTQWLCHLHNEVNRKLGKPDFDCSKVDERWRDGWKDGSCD
B2AR ag – beta2AR agonists driving receptor internalization, primary screen, cell-based, FAP fluorogen, flow cytometry | hit rate 0.43% among 340,000 | Am2.2-beta2AR cells; reference of the scale not given here | response, % (no concentration beside the values);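 active = response above a set limit, near 3 SD of response in nonfluorescent compounds, cut at about 42% in these data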;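 also: stock transfer was 100 nL into about 11 µL; a reference agonist was the positive control; negative values mostly stem from fluorescent compounds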
Target sequence (P07550 whole entry, looked up): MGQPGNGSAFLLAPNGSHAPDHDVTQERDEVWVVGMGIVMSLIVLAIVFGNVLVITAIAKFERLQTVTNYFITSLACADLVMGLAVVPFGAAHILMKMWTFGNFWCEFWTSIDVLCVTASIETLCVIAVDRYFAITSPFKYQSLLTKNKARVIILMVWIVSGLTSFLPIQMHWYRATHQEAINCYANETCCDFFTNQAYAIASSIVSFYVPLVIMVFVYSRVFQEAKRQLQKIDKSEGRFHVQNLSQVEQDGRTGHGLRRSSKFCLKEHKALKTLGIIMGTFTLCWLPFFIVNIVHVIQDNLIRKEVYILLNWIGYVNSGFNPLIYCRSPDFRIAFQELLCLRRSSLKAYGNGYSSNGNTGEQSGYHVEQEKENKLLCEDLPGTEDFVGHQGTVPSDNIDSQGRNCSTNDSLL
rRNA inh HTS – reduced GFP signal of wild-type E. coli, primary screen, bacterial rRNA inhibitor project, GFP/RFP fluorescence, OD600, single point; hit rate 1.6% among 350,000; GFP signal change (wild-type ribosome), % (no concentration beside the values); E. coli WT GFP vs humanized-ribosome RFP mutants, 24 h; active compounds read low; DMSO median 0, no signal -100;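 active = significant combined selectivity score with lowered wild-type GFP, culture density cut under 30%, mutant RFP and density less affected; inactive = any of these conditions unmet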; also: one replicate is shown; some compounds called inactive have numbers as strong as hits
Bfl-1 A1 inh – caspase 3/7 activation in MEF A1-2A-BIM cells, primary screen, A1 inhibitor project, cell-based, luminescence, HTS. hit rate 0.066% among 330,000. AID 2462, 2010. caspase activation, % (concentration not given with the values). Caspase-Glo 3/7 luminescence, 3 h; percent of clofoctol response, vehicle zero;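 active = over half of replicate activation scores above 10%, or exactly half above 10 with the replicate mean above 10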;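 also: wells of about 30 µL received 50 nL stock; many hits fall short of the cut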
LANA-H2B inh – blockers of LANA interaction with H2A/H2B – biochemical, FP readout, HTS, primary screen | inhibition, % (no concentration beside the values) | hit rate 0.6% among 320,000 | AID 2629, 2010 | Protein LANA1 (Human herpesvirus 8 type P (isolate GK18)), Q9QR71 | cell-free LANA-H2A/H2B peptide, fluorescence polarization; in the data active = inhibition mostly above about 10%, no sharp cut-off; inactive = mostly below about 6.7%;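 also: stock transfer was 7.5 nL into about 10 µL; 0% = median of vehicle wells and 100% = median of positive control wells; one replicate is shown; the record names a cut of 25% in any replicate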
T cruzi inh – inhibitors of intracellular T. cruzi growth, primary screen, luminescence, NIH3T3 host cells; T. cruzi beta-gal in NIH3T3, 90 h; inhibition, % (test concentration not listed); hit rate 1.4% among 300,000; AID 1885, 2009;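 active = mean inhibition across valid replicates above about 55%, limit read from the data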;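 also: signal also drops with host cell toxicity which is not excluded here; 0% = plate median of DMSO wells and 100% = zero luminescence signal; higher percent means less beta-gal luminescence so fewer parasites; stock transfer was 50 nL into about 50 µL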
Calb FLC – C. albicans growth inhibition with fluconazole, primary screen, CaCi-2 strain, Alamar Blue fluorescence | growth inhibition, % (concentration not given with the values) | hit rate 0.57% among 300,000 | C. albicans CaCi-2 (fluconazole-resistant clinical isolate) + fluconazole, 48 h | AID 1979, 2009;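 active = most replicates above 75%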;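 also: all wells also contain fluconazole at 8 µg/ml as a sub-toxic cotreatment; 0% = median of DMSO wells and 100% = median of geldanamycin control wells; wells of about 8 µL received 7.5 nL stock; the first replicate is given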
rRNA inh HTS OD600 – also measured in rRNA inh HTS; calls as there; OD600 change, %; measured here: OD600 growth;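 optical density of the mix in the first replicate; 0 = DMSO median and -100 = no signal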
rRNA inh HTS RFP – further read-out of rRNA inh HTS, marked with its call; RFP signal change, %; measured here: RFP humanized mutant strains;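 first replicate; 0 = DMSO median and -100 = no signal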
An asterisk follows results filed as active; · = not tested or not shown. An excerpt (hit frequency here may not be typical).

entry	mol	rRNA inh HTS RFP	B2AR ag	ALR inh	Beta apoptosis	LANA-H2B inh	Calb FLC	Bfl-1 A1 inh	rRNA inh HTS	rRNA inh HTS OD600	T cruzi inh
1	CCCc1cc(=O)[nH]c(SCC(=O)N(C)CC(=O)Nc2ccc(C)cc2)n1	·	-2	-10	·	-7.1	11	-0.7	·	·	3
2	O=C(c1ccc(Br)o1)N1CCN(CCOc2ccccc2)CC1	-1.3	-3	-7	-1	-0.3	-4	0.5	-4	-2	0
3	CC(=O)C1=C(C)N(Cc2ccccc2)C(=O)N[C@H]1c1cccc(F)c1	-0.3	-12	-8	-6	-0.1	-5	-1.6	5	16	0
4	CCCCOc1ccc(C(C)NC(=O)CCS(=O)(=O)Cc2ccccc2Cl)cc1 (stereo not drawn)	·	-8	·	0	0.4	7	-0.3	·	·	3
5	CCCc1c(OCCCOc2ccc(OCC(=O)O)cc2)ccc(C(C)=O)c1O	·	9	·	0	-3.1	·	-0.1	·	·	·
6	O=c1c2c(nc3n1CCS3)c1cc(F)ccc1n2Cc1cc(=O)n2cc(Cl)ccc2n1	·	·	-4	-11	-2.0	-11	-0.5	·	·	-4
7	Cc1cccc(-n2c(O)cnc2Nc2nc(C)cc(C)n2)c1	1.1	-12	4	1	-5.9	-5	0.0	8	5	0
8	COc1ccc(/C=C/C(=O)c2ccc3c4c(cccc24)CC3)cc1	4.1	-7	4	·	3.6	16	1.4	6	3	-3
9	O=C(Nc1ccc2ccccc2c1)C(c1ccccc1)C1CCCC1 (stereo not drawn)	-3.4	3	7	29	0.6	-25	0.2	-10	5	64*
10	Cc1ccccc1N1C(S)=C(C#N)C(=O)NC1c1cccs1 (stereo not drawn)	·	-4	18	-1	1.7	-3	1.7	·	·	-3
11	COc1cccc(C(=O)NCC2CCCN2S(=O)(=O)c2cccs2)c1 (stereo not drawn)	0.4	2	2	-2	1.2	5	-0.3	2	8	-8
12	O=CN1CCN(C(C(=O)NC2CCCCC2)c2cc3c(cc2[N+](=O)[O-])OCO3)CC1 (stereo not drawn)	-0.5	-3	-87	-2	0.7	11	0.5	8	-9	-3
13	CCCCn1c(SCC(=O)NCc2ccco2)nc2ccc(N3CCOCC3)cc2c1=O	·	-2	13	-2	-3.9	37	-0.2	·	·	-21
14	CCn1c(CSc2nc(C)cc(C)n2)nnc1SCC(=O)Nc1nc(-c2ccccc2)cs1	·	-4	·	-16	2.9	15	-0.3	·	·	12
15	Cc1cc(C)n(-c2nc(-c3ccc(Cl)c(Cl)c3)cs2)n1	·	-3	1	-1	-12	1	0.7	·	·	5
16	Cc1ccc(Cn2nnc3c(=O)[nH]c(C4CCN(S(=O)(=O)/C=C/c5ccccc5)CC4)nc32)cc1	5.1	12	1	11	-1.0	-7	0.0	-1	-9	13
17	COc1ccc(NC(=S)N(CCCN2CCC(C)CC2)Cc2cccs2)cc1Cl	4.8	4	-13	-2	-1.2	-10	0.6	-10	-11	23
18	Cc1noc(NS(=O)(=O)c2ccc(NC(=O)NC(C)(C(F)(F)F)C(F)(F)F)cc2)c1C	3.9	8	54	-9	1.5	3	-0.9	13	3	-17
19	O=C(CSc1nc2cc(Cl)ccc2s1)Nc1cccc(S(=O)(=O)N2CCOCC2)c1	·	-4	·	-5	-3.5	15	-1.0	·	·	3
20	Cc1ccc(-c2nn(CC(N)=O)c(=O)c3ccccc23)cc1S(=O)(=O)N(C)C	·	1	-9	-7	-5.3	-23	-0.6	·	·	5
21	Cc1ccccc1OCC(=O)NC(=S)Nc1ccc(S(=O)(=O)NC2CCCCC2)cc1	·	-4	4	4	-0.7	-6	-0.3	·	·	5
22	Cn1c(NCC(O)c2ccccc2)nc2c1c(=O)n(Cc1ccc(Cl)c(Cl)c1)c(=O)n2C (stereo not drawn)	·	-14	1	4	-4.7	3	0.9	·	·	26
23	N#Cc1c(-c2ccncc2)cc(-c2ccc(F)cc2)nc1N	1.7	-15	-6	7	-0.6	11	-0.4	17	17	-9
24	Cc1ccc(-c2nc(CN(C)Cc3cccc4cnccc34)c(C)o2)s1	2.7	12	34	1	3.1	-7	-0.3	-20	-18	29
25	COc1ccccc1CC(=O)N1CCC(n2nccc2NC(=O)C2CCOC2)CC1 (stereo not drawn)	8.7	0	-4	-1	-0.4	1	1.1	0	-18	-2
26	CCOc1ccc(NC(=O)CCCc2cc(-c3ccc(OCC)cc3)on2)cc1	·	0	-5	3	2.6	-4	0.0	·	·	8
27	O=C(NCc1cccnc1)C1CC(c2ccccc2Cl)=NO1 (stereo not drawn)	1.7	-3	-13	-1	-0.2	6	0.3	10	1	-6
28	CCCn1c(N)c(Sc2ccc(Cl)cc2)c(=O)n(CCC)c1=O	·	-1	-3	-5	2.2	-3	-0.5	·	·	-1
29	N/C(=N\OC(=O)Cc1cccs1)c1ccc(Br)cc1	3.9	-1	-6	-9	-0.6	2	-1.2	-1	-3	-2
30	COc1ccc(S(=O)(=O)Nc2c(NC3CCCCC3)c3ccccc3oc2=O)cc1OC	-0.4	1	49	6	0.5	1	4.3	1	1	-4

In the list so far, these have a cyano group.
entry	mol	rRNA inh HTS RFP	B2AR ag	ALR inh	Beta apoptosis	LANA-H2B inh	Calb FLC	Bfl-1 A1 inh	rRNA inh HTS	rRNA inh HTS OD600	T cruzi inh
10	Cc1ccccc1N1C(S)=C(C#N)C(=O)NC1c1cccs1 (stereo not drawn)	·	-4	18	-1	1.7	-3	1.7	·	·	-3
23	N#Cc1c(-c2ccncc2)cc(-c2ccc(F)cc2)nc1N	1.7	-15	-6	7	-0.6	11	-0.4	17	17	-9

One compound at a time (already shown). Values in the order: rRNA inh HTS RFP, B2AR ag, ALR inh, Beta apoptosis, LANA-H2B inh, Calb FLC, Bfl-1 A1 inh, rRNA inh HTS, rRNA inh HTS OD600, T cruzi inh
Shown for CCCn1c(N)c(Sc2ccc(Cl)cc2)c(=O)n(CCC)c1=O → ·, -1, -3, -5, 2.2, -3, -0.5, ·, ·, -1
Shown for O=C(CSc1nc2cc(Cl)ccc2s1)Nc1cccc(S(=O)(=O)N2CCOCC2)c1 → ·, -4, ·, -5, -3.5, 15, -1.0, ·, ·, 3

Other entries follow:
entry	mol	rRNA inh HTS RFP	B2AR ag	ALR inh	Beta apoptosis	LANA-H2B inh	Calb FLC	Bfl-1 A1 inh	rRNA inh HTS	rRNA inh HTS OD600	T cruzi inh
31	COc1ccc(C2C(C(=O)c3ccc(C)o3)=C(O)C(=O)N2Cc2cccnc2)cc1OC (stereo not drawn)	-0.7	4	-10	·	0.2	-1	3.5	0	5	-6
32	Cc1ccc(S(=O)(=O)CCC(=O)OCC(=O)NC(C)c2ccccc2)cc1 (stereo not drawn)	·	-3	-1	-9	183*	·	0.2	·	·	·
33	O=C(CSc1nnc(-c2ccncc2)o1)N1CCCCCC1	0.7	9	·	·	·	16	·	8	5	-7
34	COc1ccc(NS(=O)(=O)c2cccc(C(=O)NCC3CCCO3)c2)cc1 (stereo not drawn)	-0.3	-10	-11	-1	-1.7	6	0.2	6	5	11
35	O=C(CCN1C(=O)C2C3CCC(C3)C2C1=O)OCC(=O)c1ccc(Br)cc1 (stereo not drawn)	1.9	1	-1	-3	-1.5	-2	-0.8	-1	-7	-11
36	COc1ccc(NC(=O)c2cc(Br)ccc2Cl)c(OC)c1	-12	2	2	4	1.2	63	0.1	-2	-9	-10
37	COCCOC(=O)c1c(C)n(C)c2ccc(OC(=O)C3CC3)cc12	·	4	-10	4	-1.9	-2	-0.4	·	·	-7
38	O=C(O)C1CCN(S(=O)(=O)c2cccc3nsnc23)CC1	1.4	-1	-9	-2	-0.9	-4	-0.4	20	18	-14
39	COc1ccc(NC(=O)CN(C2CCCCC2)S(C)(=O)=O)cc1OC	·	1	-19	-9	-5.2	7	-1.5	·	·	-7
40	Cc1cc(C)c2c(=O)c(C#N)coc2c1	0.7	2	22	3	-1.0	-11	-0.1	0	0	-1
41	CCC1=NN(C(=O)C(=O)Nc2ccc(Br)cc2)C(O)(C(F)(F)F)C1 (stereo not drawn)	-0.8	14	5	1	-2.4	-33	0.1	-21	-35	10
42	O=C(NCc1cccnc1)C(=O)NCC1CCCO1 (stereo not drawn)	3.5	8	-13	2	3.0	-13	0.7	12	7	-7
43	Cc1cc(Br)ccc1NCc1ccccn1	·	-5	98*	-5	0.4	-6	-0.1	·	·	-4
44	CCOc1ccc2[nH]c(C(=O)N/N=C/c3ccccc3OC)cc2c1	15	10	-11	-3	0.9	2	0.2	-35	-69	-3
45	CN(C(=O)COC(=O)C12CC3CC(CC(Cl)(C3)C1)C2)c1ccccc1	-5.0	7	·	3	4.0	·	0.3	-22	-46	·
46	CN(CC(=O)Nc1ccccc1C(=O)NC1CC1)Cc1ccco1	0.2	-10	1	-4	-2.1	·	0.7	8	10	·
47	Cc1cc(O)c(C=Nc2ccc(Cl)cn2)c(=O)o1	·	2	-11	-3	-2.5	9	-0.6	·	·	1
48	COc1cc(NS(=O)(=O)c2ccc(N/C=C\C(=O)c3ccc(OC)c(OC)c3)cc2)nc(OC)n1	-4.5	12	0	-5	1.0	1	1.0	1	3	-18

ALR inh, what is marked active above.
entry	Molecule	rRNA inh HTS RFP	B2AR ag	ALR inh	LANA-H2B inh	Bfl-1 A1 inh	rRNA inh HTS	rRNA inh HTS OD600
43	Cc1cc(Br)ccc1NCc1ccccn1	·	-5	98*	0.4	-0.1	·	·

Bioassay records: PubChem, several laboratories
